NPYLR7 agonist: agonists of mosquito NPYLR7 receptor, primary screen, cell-based, Aedes aegypti, calcium fluorescence, mosquito biting behavior; hit rate 0.15% among 270,000; HEK293T NPYLR7/Galpha15, GCaMP6s calcium fluorescence; activation, % at 10 µM; AID 1259423, 2018; in the data active = activation above about 40%;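 also: 0% = vehicle and 100% = reference agonist at the receptor; some compounds past the cut are filed as inactive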
NPYLR7 agonist max-min: further read-out of NPYLR7 agonist, marked with its call; activation, %; measured here: Max-Min RFU normalised activation; some inactives read as strong as hits;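 span of the calcium signal over five minutes; 0% = vehicle and 100% = native peptide agonist; compound fluorescence can raise it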
* = called active by the depositor.

Start of the data: the first 4 records, to show the layout:
SMILES | NPYLR7 agonist | NPYLR7 agonist max-min
Cc1cc(OCC(=O)OCC(=O)c2cc(C)n(CC3COc4ccccc4O3)c2C)ccc1Cl (stereo not drawn) | -5.7 | -9.5
Cc1cc(C)cc(Oc2coc3cc(OCC(O)Cn4cncn4)ccc3c2=O)c1 (stereo not drawn) | 5.1 | 3.2
COc1ccc(NC(=O)Cc2csc(NC(=O)c3ccc[nH]c3=O)n2)cc1OC | 6.0 | 9.1
CC(c1ccccc1)N(C)C(=O)Nc1cccnc1 (stereo not drawn) | 3.5 | 0.1

The list itself, from the start:
SMILES | NPYLR7 agonist | NPYLR7 agonist max-min
Cc1cc(OCC(=O)OCC(=O)c2cc(C)n(CC3COc4ccccc4O3)c2C)ccc1Cl (stereo not drawn) | -5.7 | -9.5
Cc1cc(C)cc(Oc2coc3cc(OCC(O)Cn4cncn4)ccc3c2=O)c1 (stereo not drawn) | 5.1 | 3.2
COc1ccc(NC(=O)Cc2csc(NC(=O)c3ccc[nH]c3=O)n2)cc1OC | 6.0 | 9.1
CC(c1ccccc1)N(C)C(=O)Nc1cccnc1 (stereo not drawn) | 3.5 | 0.1
CN(C(=O)c1ccccc1Nc1ccccc1)C1CCS(=O)(=O)C1 (stereo not drawn) | -24.8 | -26.3
CCCOc1nn(CCC)cc1C(=O)Nc1ccc(S(N)(=O)=O)cc1 | 8.8 | -4.4
O=C(NCCCCOc1ccc(F)cc1)c1ccc2n[nH]c(=O)n2c1 | 1.4 | 0.5
Fc1cccc(-c2nc3c(NCc4ccccc4)nccc3[nH]2)c1 | -3.4 | -8.0
O=C(Cc1ccccc1)NCCSc1ncc(-c2ccc(F)cc2)[nH]1 | 1.3 | -1.2
NC(=O)CSc1cn(CC(=O)N2CCCCC2)c2ccccc12 | -4.4 | -8.9
COCCCN(CC(=O)N1CCc2sccc2C1COc1ccc(F)cc1)C(=O)COC (stereo not drawn) | -3.1 | 0.6
Cn1c(SCC(=O)c2ccccc2)nnc1C1CCS(=O)(=O)C1 (stereo not drawn) | 8.5 | 1.2
COC(=O)c1ccc(NC(=O)NCc2sccc2C)cc1 | 6.9 | 2.1
Cc1cc(C)c(OCC(=O)NC(C)(C#N)C2CC2)c(C)c1 (stereo not drawn) | -2.6 | -4.5
CCC(C)(C)c1ccc2c(C(=O)N3C[C@@H](N)C[C@H]3C(=O)NC)csc2c1 | 18.6 | 11.0
O=C(CCN(c1nc(-c2cccs2)nc2ccccc12)C1CC1)NCCN1CCOCC1 | 3.0 | 17.4
Cc1nc(COc2cccc(C(=O)N3CCC(C(=O)NC(C)C(C)C)CC3)c2)cs1 (stereo not drawn) | 9.7 | 7.4
CCCCc1nc(C(N)=O)c2[nH]c(=O)n(-c3ccc(OCC)cc3)c2n1 | 12.3 | 4.9
Fc1cccc(CNC2COc3ccccc3C2)c1F (stereo not drawn) | 7.6 | 2.4
O=S(=O)(NC1CCCCC1)c1ccc2c(c1)OCCCO2 | -1.7 | 2.7
O=C(CN1CCCCCC1=O)N/N=C1/CCCOc2c1ccc(Cl)c2Cl | 6.9 | 7.0
Cc1ccc(C(=O)CSc2nc(=O)n(Cc3cccnc3)c3c2CCC3)cc1 | -0.5 | -3.2
COCC1CCCN(C(=O)c2cn(CCC3CCCCC3)nn2)C1 (stereo not drawn) | 17.7 | 5.4
Cc1ccc(C(=O)c2ccc(C(F)(F)F)cc2)cc1 | 17.9 | 12.3
Cc1nn(C)c(C)c1-c1ccnc(N2CC=CC2)n1 | 0.9 | 7.6

A draw from above in order of SMILES length, highest first:
SMILES | NPYLR7 agonist | NPYLR7 agonist max-min
Cc1cc(OCC(=O)OCC(=O)c2cc(C)n(CC3COc4ccccc4O3)c2C)ccc1Cl (stereo not drawn) | -5.7 | -9.5
Cc1cc(C)cc(Oc2coc3cc(OCC(O)Cn4cncn4)ccc3c2=O)c1 (stereo not drawn) | 5.1 | 3.2
O=C(NCCCCOc1ccc(F)cc1)c1ccc2n[nH]c(=O)n2c1 | 1.4 | 0.5
Fc1cccc(-c2nc3c(NCc4ccccc4)nccc3[nH]2)c1 | -3.4 | -8.0
NC(=O)CSc1cn(CC(=O)N2CCCCC2)c2ccccc12 | -4.4 | -8.9

Later entries:
SMILES | NPYLR7 agonist | NPYLR7 agonist max-min
CC=CCn1c(SCc2ccc(C)cc2)nc2c1c(=O)[nH]c(=O)n2C | -0.2 | -2.4
CCOc1cc(/C=N\n2cnnc2)ccc1OS(=O)(=O)c1ccccc1 | 2.8 | 2.9
CC(C)Cc1cc(C(=O)N2CCC3(CN(C)C(=O)O3)C2)on1 (stereo not drawn) | 7.6 | 3.5
CCC(=O)NCCOc1ccc(-c2ccc(OC)cc2)nn1 | -7.6 | -6.8
Cc1cc(C)cc(COc2coc(CN3CCN(S(=O)(=O)c4c(F)c(F)c(F)c(F)c4F)CC3)cc2=O)c1 | 2.8 | 8.8
CCOC(=O)c1c(NC(=O)C(C)Oc2ccccc2)c(-c2ccc3c(c2)OCO3)cn1C (stereo not drawn) | 2.3 | -0.6
O=C(NCCn1nnc2ccccc21)c1cnn(Cc2ccccc2)c1 | 1.9 | -5.1
Cc1ccc(/C=C/C(=O)NCC2COc3ccccc3O2)cc1 (stereo not drawn) | -3.5 | -9.5
CN(Cc1nc(Cc2cccc(C(F)(F)F)c2)no1)Cc1n[nH]c2c1CCCCC2 | 0.4 | -2.5
COc1cc2nc(-c3ccc(CN)cc3)cc(C)c2cc1OC | 5.6 | 3.4
COc1cc(OC)c(OC)cc1C=C(C#N)S(=O)(=O)c1cc(Cl)ccc1Cl | 1.8 | 8.1
CC1CCN(C(=O)C(C)Sc2n[nH]c(-c3ccccn3)n2)CC1 (stereo not drawn) | -13.6 | -13.7
COc1cc(CN2CCC(C(=O)NC(c3ccccc3)c3ccsc3)CC2)cc(OC)c1 (stereo not drawn) | 26.0 | 14.0
O=C1Nc2ccccc2/C1=C/c1cc(Br)ccc1O | 3.8 | 0.6
Cc1nnc(NC(=O)Cn2nc(C)c([N+](=O)[O-])c2C)nc1C | -4.1 | -10.5
Cc1ccc2c(c1)c1ncn(Cc3ccccc3)c(=O)c1n2CC(=O)Nc1ccc2c(c1)OCO2 | -0.2 | -7.0
CC(NC(=O)C(C)(C)c1ccccc1)c1cccs1 (stereo not drawn) | -3.8 | -3.5
Cc1ccc(C=CC(=O)O)s1 | -5.5 | -6.9
CCN1/C(=C/C(C)=O)Sc2ccc(OC)cc21 | 1.9 | -33.5
CCOCCOC1CCCN(C(=O)Nc2cccc(Cl)c2)C1 (stereo not drawn) | -6.3 | -0.4
CC(C)(O)C#Cc1ccc(C(=O)N2CCC(CCC(=O)NC3CC3)CC2)cc1 | 9.2 | 11.5
CCc1nc(C)nc(N2CCN(C(=O)c3cccs3)CC2)c1Cc1c(F)cccc1Cl | 0.8 | 9.8
CN=c1scc(-c2c[nH]c3ccccc23)n1C | 15.6 | 9.9
COCc1nc(N(C)Cc2cnn(-c3ccc(F)cc3)c2)c2cnn(C)c2n1 | 16.2 | 12.8
COCCCN(CC(=O)N(CCc1ccc(OC)c(OC)c1)Cc1ccc(C)o1)C(=O)CCc1ccccc1 | 24.8 | 20.4

Remaining list, next part.
SMILES | NPYLR7 agonist | NPYLR7 agonist max-min
O=C(OCc1nc(C(=O)NCc2cccnc2)cs1)c1ccccc1 | 5.9 | 6.0
CSc1cccc(CNC(=O)c2cc(COc3c(F)cccc3F)on2)c1 | 3.3 | -1.6
C=C(C)C(C)(C)C(=O)NCC1CCN(Cc2cnc(C)nc2)CC1 | 27.9 | 16.0
CN1C(=O)c2cccc3c(S(=O)(=O)NCCCO)ccc1c23 | -6.6 | -6.0
NC(N)=NN=CC(Br)=Cc1ccccc1 | -0.8 | 6.2
c1cc[n+](CCCCC[n+]2ccccc2)cc1 | -1.7 | -1.0
Cc1ccc2nc(COC(=O)CN3C(=O)NC4(CCCC4)C3=O)cc(=O)n2c1 | -0.1 | 8.3
COc1ccccc1CN1CCn2nc(C(=O)N3CCN(C(=O)c4ccco4)CC3)cc2C1=O | 12.3 | 3.2
CCc1nnc(NC(=O)CSc2nc(-c3ccccc3C)nc3c2c(=O)n(C)c(=O)n3C)s1 | -3.3 | -8.2
CC(=O)Cn1c2[n+](c3c(F)c(F)ccc31)CCCCC2 | 2.0 | -7.3
Cn1ncc2c(NCC(O)c3cccnc3)nc(C(C)(C)C)nc21 (stereo not drawn) | 1.8 | -4.6
COc1cc(Cl)c(S(=O)(=O)N2CCN(C)CC2)cc1Cl | 1.4 | 0.2
CC(=O)Oc1ccc(CN2C(=O)C(C)(C)ON=C2c2ccc(C)cc2)cc1 | 2.2 | -0.9
COc1cc(C(=O)NNc2nc(-c3ccccc3)c3cc(Cl)ccc3n2)cc(OC)c1OC | -5.3 | -3.3
Cc1cc(S(=O)(=O)NC(C)(C)C)ccc1F | -0.8 | -2.2
c1ccc(CN(Cc2cccn2-c2ncccn2)CC2CCCO2)nc1 (stereo not drawn) | 6.7 | 0.6
O=[N+]([O-])c1ccc(N2CCN(CCc3ccccc3)CC2)nc1 | 3.7 | 8.9
COc1cc(CN(C)CC(=O)Nc2cc(C(C)C)no2)ccc1SC | 14.9 | 13.3
O[C@@H]1C[C@H]2CN(Cc3ccc4c(c3)Cc3ccccc3-4)C[C@H]2C[C@@H]1O | 14.6 | 6.8
O=C(CSc1nnc(CNC(=O)c2cccc3ccccc23)n1-c1ccc(Br)cc1)Nc1ccccc1F | -2.7 | 7.5
CCOC(=O)c1nn(-c2ccc(F)cc2)c(=O)cc1OS(=O)(=O)c1ccc(Cl)cc1 | -0.6 | 0.6
Cc1ccsc1CN(CC(C)C)C(=O)CC1CNCCO1 (stereo not drawn) | 2.6 | -1.4
CC(NCC1(c2ccccc2)CCCC1)c1nnc(-c2ccccc2)o1 (stereo not drawn) | -4.3 | -4.7
CCOC(=O)c1c(NC(=O)CCl)sc(C(=O)Nc2ccc(C)cc2C)c1C | -4.2 | -7.6
COc1ccc(/C=N\N=C2\CC(c3ccccc3)Cc3n[nH]c(=O)cc32)cc1 (stereo not drawn) | 6.8 | 6.8

More results follow:
structure	NPYLR7 agonist	NPYLR7 agonist max-min
CC1CCN(C(=O)c2cc3ccccc3oc2=O)CC1	-10.2	-14.0
CN(Cc1cnccn1)C(=O)c1cn(C2CCCCCC2)nn1	1.3	0.1
CCCN1CC(NC2CCN(C(=O)c3ccccc3)CC2)CC1=O (stereo not drawn)	10.0	6.2
CC(=O)N1CCC(CN(C)C(=O)C2CC2c2ccc(Cl)cc2)C1 (stereo not drawn)	0.2	-1.1
CCCCOc1ccc(C(=O)Nc2ccccc2C2SCC(=O)N2c2cc(C)ccc2OC)cc1 (stereo not drawn)	6.5	10.5
CC(NC(=O)Cn1nnnc1N)c1ccc2c(c1)CCCC2 (stereo not drawn)	13.3	12.5
O=C(Nc1ncc(Cc2ccccc2Cl)s1)c1cnccn1	9.2	5.9
CC(c1cccnc1)N(C)Cc1ccc(-c2ccccn2)cc1 (stereo not drawn)	4.8	2.3
O=C(CCc1nnc(-c2ccccc2)o1)NCc1ccccc1OC(F)(F)F	7.2	-2.5
Oc1ccc(-c2nccn2-c2ccc(CN3CCCC3)cc2)cc1O	-0.1	-3.5
O=C(O)c1[nH]c2ccc(Cl)cc2c1CCN1C(=O)c2ccccc2C1=O	9.8	-4.3
CC1(C)C(c2ccccc2)=[N+]([O-])C(C(=O)O)N1O (stereo not drawn)	-8.4	-11.9
O=C(c1cc(Br)cc2ccccc12)N1CC(O)C1	-0.7	-0.3
CC(=O)NCCn1ccnc1-c1cccc(C(C)N(C)C)c1 (stereo not drawn)	4.2	4.4
O=C(Cc1nc(-c2cncc(Br)c2)n[nH]1)NCc1ccncc1	-9.9	-15.0
O=C(Nc1ccc(Cl)c(C(F)(F)F)c1)N1CCc2c([nH]c3ccccc23)C1c1ccc([N+](=O)[O-])c(Cl)c1 (stereo not drawn)	-16.7	-28.9
COCCN(Cc1cccc(OS(=O)(=O)C(C)C)c1)C(=O)c1ccccc1Cl	3.5	10.0
COc1ccc(OC)c(-c2cc(Cl)c3c(c2)CC(CNC(=O)c2cncs2)O3)c1 (stereo not drawn)	23.3	15.3
CCCn1nc(C)c(CNS(=O)(=O)NCc2ccccc2)c1C	-0.7	15.7
Cc1ccc(CCNC(=O)C2CCC(=O)N(Cc3ccc(Cl)cc3)C2)o1 (stereo not drawn)	7.2	7.4

Further entries
structure	NPYLR7 agonist	NPYLR7 agonist max-min
CC(=O)NC(C)(c1ccccc1)c1nc(-c2csc3ccccc23)cs1 (stereo not drawn)	7.8	4.0
CCCCn1nnnc1NCc1cc(Cl)c(OC)c(OC)c1	14.2	5.9
Cc1cn(CCn2cnc(-c3ccccc3)c2-c2cnc3ccccc3c2)nn1	2.1	-0.7
COc1ccc(-c2nc(OCc3ccc(F)cc3)nn2-c2ccc(NC(=O)c3cccs3)cc2)cc1	9.7	12.3
COc1cc2c(cc1OC)C(c1cccc(C(F)(F)F)c1)N(C(=O)c1ccccc1OC)CC2 (stereo not drawn)	9.4	6.1
CCOC(=O)CCCC(=O)Nc1sc(-c2ccccc2)cc1C(=O)OCC	4.8	3.0
Cc1ccc(-c2nc(-c3nonc3N)no2)cc1	1.0	1.9
O=C(Nc1ccc(Oc2cccnc2)cc1)C1CCN(Cc2nccs2)CC1	9.5	4.4
COC(=O)C(=O)N1CCC(Cc2ccc(-n3cccc3)cc2)CC1	3.0	-0.8
Cc1cc(CS(=O)(=O)c2nncn2C)on1	0.9	1.1
Cc1cc(NC(=O)CC(C)C)n(-c2nc(-c3ccccc3)cs2)n1	-9.4	-16.5

Only part of the results is shown (hit frequency here may not be typical).
